Compound activity (PubChem BioAssay)
Bead autofluor = compound fluorescence in toxin protease inhibitor counterscreen; compound autofluorescence counterscreen, microsphere flow cytometry; hits give high values; fluorescence intensity (test concentration not listed); 360,000 tested, 3.1% active; AID 624483;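 active = at least 3 SD above the mean of all compounds, about 16000 in these data; inconclusive = too few beads counted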;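 note: 100 nL of 1 mM stock went into each well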
BJeLR viability = kills HRASV12-expressing BJeLR cells. BJeLR (HRASV12) viability, CellTiter-Glo ATP luminescence, 48 h; reference of the scale not given here. inhibition, % (no concentration beside the values). 300,000 tested, 0.17% active. AID 1554;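 active = replicate mean above 50%; inconclusive = above 50% but judged a plate artefact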;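 note: 50 nL library stock added to about 25 µL; numbers are from one replicate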
PrP 5UTR inh = suppresses PrP 5' UTR mRNA reporter expression. 340,000 tested, 0.35% active. cell-based PrP 5' UTR mRNA reporter, plate reader. inhibition, % (no concentration beside the values);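 active = every replicate at 50% or more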;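 note: 0 = median of the neutral control wells; tested in H4 reporter cells; numbers are from one replicate; inactives centre near -14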
Sa ugtP lethal = growth inhibition of S. aureus ugtP deletion strain | S. aureus RN4220 ugtP deletion, OD600 growth, 16 h; some inactives read as strong as hits | growth inhibition, % (no concentration beside the values) | 330,000 tested, 0.54% active | AID 1259309;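 active = z-score under -3 and OD600 up to 0.15 on both plates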;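 note: plate controls were untreated wells for no effect and antibiotic for full effect; wells of about 80 µL received 100 nL stock; the first replicate is given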
Sa RN4220 lethal = S. aureus RN4220 growth inhibition; AID 1259311; OD600, 16 h; inhibition, % (concentration not given with the values); 330,000 tested, 0.33% active;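 active = z-score of -3 or lower and OD600 up to 0.18 on both plates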;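 note: plate controls were untreated cells for no effect and reference antibiotic for full effect; stock transfer was 100 nL into about 80 µL; one replicate is shown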
Mtb hypoxia inh = Mtb hypoxia fluorescent reporter inhibition; 300,000 tested, 0.1% active; M. tuberculosis hypoxia-regulated fluorescent reporter, fluorescence; fluorescence inhibition, % (test concentration not listed); AID 1159583;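 active = 35 to 45% if threefold the growth effect, above 45% if 1.5-fold the growth effect; inactive = the rest, general growth blockers included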;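 note: wells of about 50 µL received 100 nL stock; 0% = vehicle wells and 100% = reference inhibitor wells; whole bacteria with a GFP reporter of the hypoxia response; strong numbers were not always called active; many hits fall short of the cut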
Mtb hypoxia inh growth = second read-out of Mtb hypoxia inh, no call of its own (marks repeat the call); growth inhibition, %; measured here: M. tuberculosis growth (absorbance);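 0% = vehicle and 100% = reference antibiotic; read after six days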
The depositor's hits bear a star; ? = inconclusive; . = not tested or not shown; & = joins results of further samples. Hits appear at their usual frequency (roughly 3.9% active in at least one column).

SMILES	Bead autofluor	BJeLR viability	PrP 5UTR inh	Sa ugtP lethal	Sa RN4220 lethal	Mtb hypoxia inh	Mtb hypoxia inh growth
Cc1ccc(S(=O)(=O)Nc2ccccc2CNc2ncc(Br)cc2Br)cc1	2328	-8	-22	15	-1.0	5	8
O=C(CSc1ccsc1[N+](=O)[O-])NCCc1ccc(Cl)cc1	3860	-11	-2	2	2.8	8	15
O=C(ONC1=NCCCCC1)c1cccc([N+](=O)[O-])c1	2013	-7	-29	11	7.1	1	-6
COc1ccc(CCNC(=O)COC(=O)c2ccc([N+](=O)[O-])o2)cc1	3447	.	-21	7	4.6	.	.
N#Cc1ccc(C(=O)OCC(=O)NC(=O)NC2CCCCC2)cc1	4025	.	-6	2	2.6	-2	9
NC(Cc1ccc([N+](=O)[O-])cc1)=NOC(=O)COc1ccccc1Cl	.	.	.	2	1.8	2	4
CC(C)C[C@H](NC(=O)OC(C)(C)C)C(=O)N[C@@H](CO)[C@H](O)[C@@H]1C[C@@H]1C(=O)NC1CC1	3428	1	-2	.	.	.	.
CN(C)Cc1nc2ccccc2c(=O)n1Cc1nc(C(C)(C)C)cs1	4903	.	-21	1	5.0	7	12
Cc1c(C)c2c(OCC(=O)NCC(=O)NCC(=O)O)cc3c(c2oc1=O)CCC(C)(C)O3	3785	-3	-13	24	6.7	0	1
Cc1ccc(SCc2ccc(C(=O)Nc3ccccc3Br)cc2)cc1	2093	-2	-13	9	-1.1	4	3

Individual results from the entries so far:
Result of Cc1c(C)c2c(OCC(=O)NCC(=O)NCC(=O)O)cc3c(c2oc1=O)CCC(C)(C)O3 under PrP 5UTR inh: -13
Result of O=C(ONC1=NCCCCC1)c1cccc([N+](=O)[O-])c1 under BJeLR viability: -7
Result of O=C(CSc1ccsc1[N+](=O)[O-])NCCc1ccc(Cl)cc1 under PrP 5UTR inh: -2
Result of CC(C)C[C@H](NC(=O)OC(C)(C)C)C(=O)N[C@@H](CO)[C@H](O)[C@@H]1C[C@@H]1C(=O)NC1CC1 under Bead autofluor: 3428
Result of NC(Cc1ccc([N+](=O)[O-])cc1)=NOC(=O)COc1ccccc1Cl under Sa RN4220 lethal: 1.8
Result of COc1ccc(CCNC(=O)COC(=O)c2ccc([N+](=O)[O-])o2)cc1 under Sa RN4220 lethal: 4.6
Result of N#Cc1ccc(C(=O)OCC(=O)NC(=O)NC2CCCCC2)cc1 under Bead autofluor: 4025

New compounds follow.
SMILES	Bead autofluor	BJeLR viability	PrP 5UTR inh	Sa ugtP lethal	Sa RN4220 lethal	Mtb hypoxia inh	Mtb hypoxia inh growth
CC(C)CCN1CCN(Cc2cccn2-c2nccs2)CC1CCO (configuration not stated)	2148	12	-11	1	2.5	4	5
Cc1cccc(Sc2c([N+](=O)[O-])ncn2C)n1	?	0	-19	1	13	6	-3
C#Cc1ccc(C2C=C(C(=O)O)OC(OCc3ccc(CO)cc3)C2)cc1 (configuration not stated)	.	.	.	2&-9	4.4&2.9	11&12	10&7
COc1ccc(OC)c(N/C(=N\C(=S)Nc2ccccc2)Nc2nc(C)cc(C)n2)c1	.	.	.	-23	0.2	12	-1
CCS(=O)(=O)N1Cc2ccccc2CC1C(=O)Nc1nc2ccccc2[nH]1 (configuration not stated)	10349	-2	-64	1	4.5	4	11
COc1ccccc1-n1nc(C(=O)Nc2ccc3c(c2)OCO3)c2ccccc2c1=O	3674	4	-16	2	1.5	.	.
COc1ccc(-n2c(O)c(/C=C3\C=Nc4ccc(Br)cc43)c(=O)[nH]c2=O)cc1	3704	1	-23	12	1.9	-4	-2
Cc1ccc(C#CC[N+](C)(C)CC#Cc2ccccc2)cc1	4756	5	-30	6	4.2	2	4
Cn1c(C(=O)OC(C(=O)NC2CCCC2)c2ccncc2)cc2sccc21 (configuration not stated)	12637	-5	-11	3	4.8	3	10
COc1cccc(CNC(=O)COC(=O)c2ccc(Cl)s2)c1	4316	.	-13	6	2.5	4	5
CCOC(=O)CNc1ccc(OC(F)(F)F)cc1	4991	1	-12	4	2.2	-1	11
Cc1ccc2[nH]c(=O)c(CN(CCCN3CCOCC3)C(=O)Nc3ccc(Cl)cc3)cc2c1	3535	2	-26	-3	-5.7	1	5
O=C(Nc1ccc2nn(-c3ccccc3)nc2c1)c1ccc(Br)o1	9260	0	-37	-5	1.6	-6	-9
CCC1(C)C2(C#N)C(N)=NC(OC)(OC)C12C#N (configuration not stated)	2671	4	-16	2	-2.0	.	.
O=C1N(Cc2cccnc2)C[C@@H]2C[C@@H](c3ccccc3C#Cc3ccccc3)N3CCC[C@@]123	5052	-2	-19	-1	-1.8	3	-3
COCc1nnc(NC(=O)CCc2ccccc2)s1	3280	7	-27	6	2.3	9	8
O=[N+]([O-])c1ccccc1S(=O)(=O)NCc1ccc(F)cc1	3250	5	-16	11	9.6	-2	1
O=C(c1cc2nc(-c3ccco3)cc(C(F)(F)F)n2n1)N1CCN(Cc2ccccc2)CC1	11045	-5	-19	11	2.1	7	-7
CC(NCC(=O)Nc1ccccc1C(=O)NC1CC1)c1ccc(F)cc1F (configuration not stated)	4037	.	-23	2	1.2	3	7
O=C(O)c1ccc(Cl)c(S(=O)(=O)Nc2ccccc2N2CCOCC2)c1	4543	-7	-40	8	4.0	6	-1

Ordered by number of heavy atoms (ascending): some entries from above
SMILES	Bead autofluor	BJeLR viability	PrP 5UTR inh	Sa ugtP lethal	Sa RN4220 lethal	Mtb hypoxia inh	Mtb hypoxia inh growth
CCOC(=O)CNc1ccc(OC(F)(F)F)cc1	4991	1	-12	4	2.2	-1	11
COCc1nnc(NC(=O)CCc2ccccc2)s1	3280	7	-27	6	2.3	9	8
O=[N+]([O-])c1ccccc1S(=O)(=O)NCc1ccc(F)cc1	3250	5	-16	11	9.6	-2	1
O=C(Nc1ccc2nn(-c3ccccc3)nc2c1)c1ccc(Br)o1	9260	0	-37	-5	1.6	-6	-9
CC(NCC(=O)Nc1ccccc1C(=O)NC1CC1)c1ccc(F)cc1F (configuration not stated)	4037	.	-23	2	1.2	3	7
Cc1ccc2[nH]c(=O)c(CN(CCCN3CCOCC3)C(=O)Nc3ccc(Cl)cc3)cc2c1	3535	2	-26	-3	-5.7	1	5

Additional compounds.
SMILES	Bead autofluor	BJeLR viability	PrP 5UTR inh	Sa ugtP lethal	Sa RN4220 lethal	Mtb hypoxia inh	Mtb hypoxia inh growth
O=C(COc1ccccc1F)N1c2ccccc2CCc2ccccc21	2078	7	-15	-2	1.3	3	0
CCOC(=O)CSc1nc(-c2ccc(OC)cc2)ns1	3303	-13	-7	12	14	8	-7
COc1ccccc1N1C(=N)S/C(=C\c2ccc(-c3ccccc3C(=O)O)o2)C1=O	2751	4	1	-3	6.3	-4	2
CC(C)C(=O)N(Cc1ccccc1)S(=O)(=O)c1ccc2c(c1)oc(=O)n2C	6252	-4	-17	6	2.6	-1	-3
CC(C)(C)n1nnnc1C(c1ccc(Cl)cc1)N1CCSCC1 (configuration not stated)	2412	-3	-15	4	6.6	8	-1
COc1ccc(N2C(=O)N3C(c4cccc(C)c4)C4C(=O)N(Cc5ccccc5)C(=O)C4[C@]3(Cc3ccccc3)C2=O)cc1 (some centres not stated)	.	.	.	4	5.6	7	10
Cc1c(Br)c([N+](=O)[O-])nn1CC(=O)Nc1ccccn1	3742	-5	-14	-2	3.6	1	-9
CCOc1ccccc1C(=O)NCCc1cnc[nH]1	4176	3	-11	10	3.4	2	0
COCCN(C(=S)Nc1ccc(C)cc1)C(C)c1cccnc1 (configuration not stated)	4269	10	-23	-1	1.1	6	-5
Cc1ccc(C(=O)Nc2ccc3c(c2)OCO3)cc1	7322	-11	-24	-12	-3.4	1	0
Cc1ccc(NC(=S)c2ccccc2)cc1	2440	-22	-86	1	6.3	1	1
COc1ccc(-c2oc3cccnc3c2/C=C/c2ccc(OC)c(OC)c2)cc1	4174	0	-17	.	.	.	.
CC(=O)NCCc1nc2cc(NC(=O)c3ccccc3Cl)ccc2n1C	3740	-2	-10	-4	0.7	7	3
O=C(NCc1ccc(F)cc1)C1Cc2ccccc2CN1C(=O)c1ccco1 (configuration not stated)	5176	4	-12	-16	-3.9	-4	-3
O=C(Nc1nc2cc3c(cc2s1)OCCO3)C1CCCCC1	.	.	-43	-11	-4.7	0	-11
O=C(CCN1CCN(c2ccccc2)CC1)NNC(=O)Cc1ccc(Br)cc1	?	.	-2	5	0.6	1	3
CCOC(=O)N1CCN(C(=O)CSc2ccc(-c3cccnc3)nn2)CC1	.	-7	.	2	1.8	0	-1
O=C(COc1ccc(S(=O)(=O)N2CCCC2)cc1[N+](=O)[O-])N1CCCC1	3869	.	-7	3	0.8	-5	0
Nc1ccccc1SCc1cn2cccnc2n1	5258	4	-17	1	3.5	.	.
Nc1cccc(NC(=O)CN2CCOCC2)c1	4039	-1	-3	-2	-2.9	-5	-3
O=C(NCCc1ccccc1)c1cc(-c2ccncc2)nc2ccc(S(=O)(=O)N3CCOCC3)cc12	5398	-1	10	5	3.2	-7	-4
O=C(NC(=Cc1ccc(Br)cc1)C(=O)N1CCOCC1)c1cccs1	.	.	.	2	6.6	12	8
COc1cccc(C2CC(c3ccccc3)Nc3nc(N)nn32)c1 (configuration not stated)	6326	-2	-23	5	0.6	.	.
CCCCCn1c(SCC(=O)OC)nc2c1c(=O)[nH]c(=O)n2C	4726	-6	-13	-5	-12	9	13
CCCCC(c1nnnn1CCOC)N1CCN(Cc2ccccc2)CC1 (configuration not stated)	4917	3	-38	-3	-2.1	.	.
O=C(O)c1csc(-c2cccs2)n1	3897	5	-12	4	3.3	12	3
Cc1ccc(C)c(NC(=O)c2cc(=O)c3ccccc3o2)c1	9821	3	-70	-7	0.1	-6	7
Cc1[nH]n(-c2ccccc2)c(=O)c1N=Nc1cccc(C(=O)O)c1	3264	-8	-9	-10	14	14	-1
Cc1[nH]c2ccccc2c1C=NNC(=O)CNC(=O)c1ccc2c(c1)OCCO2	.	.	.	-8	-3.1	-9	1
O=c1cc(-c2ccccc2F)oc2ccccc12	7318	-2	-49	-6	0.8	-4	1
O=C(Nc1ccccc1N1CCCCC1)c1cccs1	24609*	-8	-9	23	4.5	15	-1
CC(C)(C)c1ccc(NC(=O)c2ccc(=O)[nH]n2)cc1	3449	0	-35	10	1.6	3	-8
COC(=O)c1ccc(COc2ccc(/C=N/O)cc2OC)o1	3420	11	-6	.	.	.	.
